Screens (PubChem BioAssay)
Rce1 inh = yeast Ras-converting enzyme inhibition; yeast membranes, quenched prenylated peptide cleavage fluorescence; calls only; hit rate 0.27% among 290,000;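 active means fall in fluorescence gain of 50% or more versus controls, with final raw signal at or below 3038400; inconclusive means same 50% fall but final raw signal above 3038400; inactive means fall in fluorescence gain under 50%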;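 further: plate controls were neutral control wells for no effect and wells lacking membranes for full effect; tested at 10 µM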
Target sequence (Q03530 whole entry, looked up): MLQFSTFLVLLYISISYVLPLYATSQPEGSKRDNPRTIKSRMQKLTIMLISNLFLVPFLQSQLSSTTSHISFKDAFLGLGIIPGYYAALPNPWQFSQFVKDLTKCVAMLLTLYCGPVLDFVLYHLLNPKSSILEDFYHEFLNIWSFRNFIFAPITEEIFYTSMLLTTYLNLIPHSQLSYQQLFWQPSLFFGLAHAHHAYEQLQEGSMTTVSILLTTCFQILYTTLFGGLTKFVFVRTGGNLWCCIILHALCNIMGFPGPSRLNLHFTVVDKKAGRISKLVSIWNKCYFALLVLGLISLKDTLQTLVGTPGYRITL
eIF4H inh = inhibitors of RNA binding by human eIF4H; inhibition, % at 35 µM; AID 2012; eIF4H fluorescence polarization binding assay; hit rate 0.94% among 290,000;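 active means 50% or more with normal probe brightness, or confirmed in later tests; inconclusive means above 50% with abnormal brightness, or retests that disagree; inactive means below 50% or failed in later tests; about a fifth of its hits are not listed in these tables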;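 further: calls also rest on retests at 20 µM and on dose response follow-up; 0% = protein and probe with vehicle and 100% = probe without protein; strong numbers were not always called active; many hits fall short of the cut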
PABP polyA inh = blocks human PABP binding to poly(A) RNA | P11940 | fluorescence polarization | inhibition, % at 35 µM | hit rate 1% among 290,000;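 active means 50% or more with normal probe brightness, or confirmed in later tests; inconclusive means above 50% with abnormal brightness, or retests that disagree; inactive means below 50% or failed in later tests; about a fifth of its hits are not listed in these tables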;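 further: calls also rest on retests at 20 µM and on dose response follow-up; controls were probe without protein and protein plus probe with vehicle; some compounds called inactive have numbers as strong as hits; many hits fall short of the cut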
MT1-MMP act inh = MT1-MMP (human) activation inhibition. P50281. HT1080 RFP-PRO-GFP cells, GFP/RFP ratio fluorescence, overnight; percent of plate control window, DMSO zero. GFP/RFP ratio change, % at 20 µM. hit rate 0.061% among 360,000. AID 651647;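 active means GFP/RFP ratio change of at least 30% with cell ATP level not reduced by more than half and red fluorescence within 50% of control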; further: strong numbers were not always called active
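Material – HT1080 RFP-PRO-GFP cells · Control set – DMSO wells and RFP-L50D-GFP cells · Incubation – overnight cell settling, then overnight compound exposure, 37 °C, 5% CO2 · Compound dosing – single-point 20 µM compound, 1% DMSO · Read-out – GFP/RFP fluorescence ratio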
Env fusion inh = blocks HIV Env-driven cell-cell fusion; HeLa-JRFL Env/CEM21 cell fusion, luciferase; inhibition, % at 12.3 µM; hit rate 1.1% among 360,000;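 active means mean replicate inhibition score of at least 50 and every replicate individually at or above 50; inconclusive means only one of the two criteria met; inactive means mean below 50 and not all replicates reaching 50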;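 further: 0% = plate neutral controls and 100% = maraviroc near 300 nM; one replicate is shown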
CSC inhib = cancer stem cell inhibition; cancer stem cell-like cells viability, luminescence; inhibition, % at 7.5 µM; hit rate 1.1% among 300,000;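 active means mean at 75% or more and at least half the replicates too; inconclusive means mean and replicates disagree; tested in HMLE shEcad cells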;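 further: 0% = median of negative and 100% = median of positive control wells; the first replicate is given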
UUG fidelity = modulators of start codon recognition fidelity in yeast | S. cerevisiae UUG-firefly luciferase reporter, luminescence/redox ratio | activity score, % at 18.7 µM | hit rate 0.13% among 350,000 | AID 602363;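 active means replicate mean at a twofold rise or more, about +100% in these data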;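 further: firefly luciferase made from a UUG start codon reports start codon fidelity; reporter light over untreated wells divided by growth signal over untreated wells; some hits fall short of that in this replicate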
eIF4H inh retest = further read-out of eIF4H inh, marked with its call; inhibition, %; compound at 20 µM; confirmation average;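 mean of two retest wells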
PABP polyA inh retest = recorded beside PABP polyA inh, whose call it bears; inhibition, %; compound at 20 µM; confirmation repeats;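 mean of two retest wells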
MT1-MMP act inh RFP = second read-out of MT1-MMP act inh, no call of its own (marks repeat the call); RFP signal change, %; measured here: RFP expression control read;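 0 = vehicle wells; hits needed this value within 50% of zero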
* marks the source's active call; other numbers are inactive results; i = inactive; ? = inconclusive; nt = not tested or not shown.

SMILES	Rce1 inh	eIF4H inh	PABP polyA inh	MT1-MMP act inh	MT1-MMP act inh RFP	Env fusion inh	CSC inhib	UUG fidelity	others
CCCOc1ccc(-c2csc3nc[nH]c(=O)c23)cc1	i	-2	-8	nt	nt	-33	-23	2
O=C(Nc1ncnc2sc3c(c12)CCCCC3)c1ccccc1	i	-6	-4	3	0	-64	13	nt
Cc1cccc(C(=O)Nc2ccccc2SCC(=O)Nc2ccc(C)c(Cl)c2)c1	i	-4	-8	2	-1	7	nt	nt
O=c1[nH]c2ccccc2c(O)c1O	i	12	2	12	2	nt	-11	21
CC(C)C(NS(=O)(=O)c1cccs1)C(=O)Nc1nc(C(C)(C)C)cs1 (stereo unspecified)	i	-2	2	-49	-26	nt	3	-5
COc1ccc(S(=O)(=O)N(C)C[C@H]2Oc3c(NS(=O)(=O)c4ccc(F)cc4)cccc3C(=O)N([C@H](C)CO)C[C@@H]2C)cc1	nt	nt	nt	4	1	-41	-17	5
NC(=O)c1ccc[n+](CC(=O)Nc2ccccc2C(=O)O)c1	i	2	14	-12	-4	0	-5	-20
CC(=O)Nc1nnc(-c2ccco2)o1	i	11	-6	9	3	-7	8	nt
CN1CCN(c2ccc(C(CC(N)=O)NC(=O)c3ccccc3)cc2[N+](=O)[O-])CC1 (stereo unspecified)	i	8	9	1	2	7	-8	4
Cc1cc(-c2nnc(SCC(=O)Nc3ccc(S(N)(=O)=O)cc3)n2N)n[nH]1	i	0	-8	-3	-2	-3	1	-11
CCN(CC)C(=O)CC(c1ccc(F)cc1)c1ccc(OC)cc1 (stereo unspecified)	i	-16	-9	-4	0	-8	nt	nt
CC(C)C(=O)N1N=C(c2ccc(NS(C)(=O)=O)cc2)CC1c1cccs1 (stereo unspecified)	i	-7	11	-6	-12	-6	-8	6
COc1ccccc1CNC(=O)CCNC(=O)Cn1ccc2ccccc2c1=O	i	-6	-9	4	8	20	1	-2
NCc1cccc(-n2cccn2)c1	i	-1	3	-4	3	-120	9	-10
CCOc1ccc(NC(=O)Cn2nnc3c(cnn3-c3ccc(F)cc3)c2=O)cc1	i	2	6	-2	-2	-6	-12	nt
CC(=O)NCCNC(=O)c1ccc(Cn2c(=O)[nH]c3ccsc3c2=O)cc1	i	7	-3	0	2	6	-4	-10
COc1ccccc1C(=O)Nc1sc2c(c1C(N)=O)CCCC2	i	-2	5	1	0	-78	14	-18
O=C(Nc1ccccc1C(=O)NC(Cc1ccccc1)C(=O)O)c1ccco1 (stereo unspecified)	i	-1	11	0	5	-3	-9	10
Cc1cccc(CCNC(=O)C2CCN(S(=O)(=O)c3cccc4nsnc34)CC2)c1	i	2	6	8	-3	nt	-1	-16
Cc1ccc(C)c(NC(=O)C2CC(O)CN2C(=O)Oc2ccccc2)c1 (stereo unspecified)	i	-3	15	-2	0	-1	nt	-25

Compounds from the list above with an aryl thioether with sulfur outside any ring, in the order listed:
SMILES	Rce1 inh	eIF4H inh	PABP polyA inh	MT1-MMP act inh	MT1-MMP act inh RFP	Env fusion inh	CSC inhib	UUG fidelity	others
Cc1cccc(C(=O)Nc2ccccc2SCC(=O)Nc2ccc(C)c(Cl)c2)c1	i	-4	-8	2	-1	7	nt	nt
Cc1cc(-c2nnc(SCC(=O)Nc3ccc(S(N)(=O)=O)cc3)n2N)n[nH]1	i	0	-8	-3	-2	-3	1	-11

(listing goes on)
SMILES	Rce1 inh	eIF4H inh	PABP polyA inh	MT1-MMP act inh	MT1-MMP act inh RFP	Env fusion inh	CSC inhib	UUG fidelity	others
O=S1(=O)CC(N2CC=CC2)CN1C1CCCCC1 (stereo unspecified)	nt	nt	nt	1	5	-8	nt	-10
Cc1nn(-c2ccccc2)c(N2CCCC2)c1/C=N/Nc1ccc(S(N)(=O)=O)cc1[N+](=O)[O-]	i	-6	-5	11	-11	16	49	nt
Cc1c(C(=O)COC(C)(C)C)[nH]c2ccccc12	i	-8	9	0	4	nt	-16	-4
CCC(C)NCCOc1ccccc1C (stereo unspecified)	i	4	27	1	2	-8	-2	1
Cc1sc2ncnc(SCC(=O)NC(C)C(C)C)c2c1C (stereo unspecified)	i	7	-6	-5	-1	33	3	nt
Cc1c(OCC(=O)NCC(O)c2ccccc2)ccc2c3c(c(=O)oc12)CCCC3 (stereo unspecified)	i	-2	-8	-1	-2	-7	17	-10
c1cc(-c2cccs2)nc(-c2cccs2)c1	nt	0	-8	4	8	8	-9	nt
O=C(NC12CC3CC(CC(C3)C1)C2)c1ccccc1	i	0	-4	-2	2	9	-5	3
CCC/C(O)=C1\C(=O)CC(C)(C)CC1=Nc1ccc(OC)cc1	i	5	2	-1	0	26	0	12
O=C(c1ccccc1)c1ccc(Cn2cc(CCCO)nn2)cc1	i	-2	-1	6	-26	-1	-9	2
O=C(COc1ccc(Br)cc1)N/N=C1\SCC(=O)N1c1ccc(F)cc1	i	2	2	6	1	-19	1	-6
COc1ccccc1NS(=O)(=O)c1cccc(N2CC(O)=C(c3ccccc3)C2=N)c1	i	-6	0	-2	4	-11	7	nt
COc1ccc(CNCc2ccncc2)c(OC)c1	i	3	52	3	1	-43	10	3	eIF4H inh retest=-9;PABP polyA inh retest=14
COc1cccc(OCC(=O)Nc2ccccc2NC(C)=O)c1	i	2	-1	1	1	11	-19	-13
O=C(Nc1cccc(-c2cn3ccccc3n2)c1)c1cc2ccccc2oc1=O	i	6	0	5	3	nt	5	-14
C/C(=N\NC(=O)CN(c1ccccc1)S(=O)(=O)c1ccccc1[N+](=O)[O-])C(C)(C)C	i	3	-8	0	4	nt	-16	0
COc1ccc(S(=O)(=O)NN(C)C(=O)c2nn(-c3ccccc3)ccc2=O)cc1	i	-2	2	1	1	6	1	-12
CC(=O)Nc1ccc(NC(=O)C(C)OC(=O)c2ccc(S(=O)(=O)N3CCCCCC3)cc2)cc1 (stereo unspecified)	nt	nt	nt	-10	-3	-1	-11	-8
COC(=O)c1ccc(N=NNc2cccc(Br)c2)cc1	nt	-7	-1	5	5	nt	-5	nt
CCCCN(C)C(=O)C1CCC(=O)N(c2cc(OC)c(OC)c(OC)c2)C1c1ccc(OC)cc1 (stereo unspecified)	i	8	-10	0	-4	25	-3	-2
CCOC(=O)N1CCN(S(=O)(=O)c2ccc(F)cc2)CC1	i	-6	2	2	6	nt	2	-17
O=C(CN1C(=O)S/C(=C\c2cccs2)C1=O)Nc1ccc(O)c(C(=O)O)c1	i	53	-3	0	3	-9	-17	-7	eIF4H inh retest=-2;PABP polyA inh retest=18
Cc1cccc(OCC(=O)N/N=C\c2cn(C)c3ccccc23)c1	i	-6	1	-6	-1	8	11	-5
Clc1ccc(CSc2ncn[nH]2)cc1	i	-1	-12	-2	4	nt	2	-7
COc1cc(/C=C/[N+](=O)[O-])ccc1OCc1cccc(C(=O)O)c1	i	52	41	nt	nt	nt	nt	nt	eIF4H inh retest=15;PABP polyA inh retest=36
CC(=O)c1sc(NC(=O)C2CCN(c3ncnc4sc(C)c(C)c34)CC2)nc1-c1ccccc1	i	nt	nt	5	0	nt	7	-25
Cc1nn(C)c(C)c1Nc1ccc(N2C(=O)C3C4C=CC(C4)C3C2=O)cc1[N+](=O)[O-] (stereo unspecified)	i	-10	27	7	-4	4	-20	nt
O=C(O)CSc1ccn(Cc2ccccc2)c1	nt	nt	nt	-5	-3	-10	nt	-28
CC1CCN(S(=O)(=O)Cc2ccccc2Cl)CC1	i	4	9	1	-2	nt	15	-8
CCOC(=O)Cc1csc(NC(=O)Nc2cccc(Cl)c2)n1	i	-4	-1	-1	-16	7	1	nt
FC(F)C(F)(F)Oc1cccc(Nc2nccn3c(-c4cccc5ccccc45)cnc23)c1	nt	nt	nt	-9	-14	-18	nt	-20
CC1C(=O)N2CCCc3cc(NC(=O)C(=O)NCCCc4ccccc4)cc1c32 (stereo unspecified)	i	nt	nt	7	0	-15	4	-14
COc1ccc(S(=O)(=O)Oc2ccccc2C(=S)N2CCOCC2)cc1	nt	-6	-9	2	5	nt	0	-19
Cc1cccc(Nc2nc(N)nc(CSC(=S)N3CCOCC3)n2)c1	i	3	3	2	0	nt	nt	nt
COc1ccc2c(c1)c(C(=O)O)c(C)n2-c1ccccc1	i	-6	1	0	4	10	-8	-22
Cc1ccc(-n2nc3c(c2NC(=O)c2ccco2)CS(=O)(=O)C3)c(C)c1	i	-4	3	1	7	-10	-18	-16
COC(=O)CNC(=O)c1ccc(NS(=O)(=O)c2cc([N+](=O)[O-])ccc2Cl)cc1	nt	24	21	1	3	-14	-9	-13
O=C(CN1C(=O)NC2(CCCC2)C1=O)N1CCN(Cc2ccccc2)CC1	i	nt	nt	4	-5	-141	-8	nt
CCC(c1nnnn1C(C)C)N1CCN(C2CCCC2)CC1 (stereo unspecified)	i	-9	10	1	4	nt	-6	-20
COc1cc(OC)cc(-c2c(-c3cccs3)c3cc(-c4ccc(OC)cc4F)ccc3n2C)c1	nt	nt	nt	-3	2	20	-7	-20
CCOc1ccc(C2C(C(=O)Nc3cc(C)on3)c3ccccc3C(=O)N2CCN2CCOCC2)cc1 (stereo unspecified)	i	5	20	-8	-2	-8	-1	nt
O=C(O)C1(Nc2ccccc2)CCCC1	nt	nt	nt	-3	4	-3	nt	-22
COc1ccc(C(=O)N2CCCc3ccccc32)cc1	i	-3	-5	-6	-3	-3	-7	-17
O=C(O)c1cc(C(=O)O)c(-c2ccccc2)c(C(=O)O)c1	i	6	7	9	1	-36	6	-3
O=C(c1ccco1)n1nc(-c2ccco2)nc1SCc1ccccc1	i	-14	9	3	1	4	1	-12
CCN1CCN(C(CNS(=O)(=O)c2ccc(Cl)cc2)c2ccccc2)CC1 (stereo unspecified)	i	-5	-12	-6	-6	-2	6	-6
CCc1nc(N2CCC(C)CC2)c2oc3ccccc3c2n1	i	7	-3	-3	-5	nt	?	-21
COC(=O)C1=C(C)N(Cc2ccccc2)C(=NCc2cc(OC)c(OC)c(OC)c2)N[C@H]1CCc1ccccc1	nt	nt	nt	-3	-1	13	-1	-6
O=C(CNC(=S)N(CCCN1CCOCC1)Cc1cccs1)NCc1ccccc1	i	nt	nt	-2	5	5	-3	-5
CCc1nnc(NC(=O)c2nc(Cl)ccc2Cl)s1	i	-6	4	-1	3	-25	-23	-16
CC(CP(=O)(O)O)NC(=O)Cc1ccccc1 (stereo unspecified)	i	0	-7	0	0	-13	16	-20
CCC1(c2ccccc2)NC(=O)N(CC(=O)Nc2ccc(S(=O)(=O)NC3=NCCCCC3)cc2)C1=O (stereo unspecified)	i	nt	nt	3	-5	0	-18	7
CN1CCN(S(=O)(=O)c2cccc(C(=O)Nc3cccc([N+](=O)[O-])c3)c2)CC1	i	nt	nt	5	1	2	-9	nt
COc1ccc(NC(=S)NNC(=O)CNc2ccc(Cl)cc2)cc1	i	5	0	0	0	-5	17	nt
COc1cc(C(CC(=O)Nc2cc(C)ccn2)N2Cc3ccccc3C2=O)cc(OC)c1OC (stereo unspecified)	i	3	2	-4	-4	13	-5	-4
CCn1nc(C(=O)Nc2nc3ccccc3[nH]2)c2ccccc2c1=O	i	-11	24	5	-2	-12	-6	nt
CN(Cc1ccccc1)C(=O)COC(=O)c1ccc2ccccc2n1	i	1	0	0	2	15	-10	nt
COC(=O)CSc1ncc(C#N)c(N)n1	i	-2	19	0	2	8	-19	-8
c1ccc(-c2ccccc2OCCN2CCOCC2)cc1	i	-6	-1	0	5	nt	-7	nt
